Screens as filed in PubChem.
RAD54 inh = inhibitors of human RAD54 branch migration; 0.14% of 360,000 active; RAD54 Holliday junction branch migration, FAM/BHQ fluorescence; inhibition, % at 10.4 µM; Q92698;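 active = mean normalized replicate activity at least 40 and at least half of replicates scoring 40 or more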;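 also: 0% = median of neutral control wells and 100% = median of positive control wells; inhibitors cause a drop in the FAM fluorescence signal; in these data hits start at about 50%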
ERAP1 inh = inhibitors of human ERAP1 aminopeptidase. Q9NZ08. recombinant ERAP1, Leu-AMC fluorescence, 60 min. inhibition, % at 10.7 µM. 0.15% of 340,000 active;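 active = mean replicate inhibition of at least 30%, or all replicates individually reaching that 30% level; inactive = mean below 30% and not every replicate reaching it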;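 also: 0% = neutral control wells and 100% = L-leucinethiol positive control wells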
RAD52 anneal inh = RAD52 (human) annealing inhibition. recombinant RAD52 DNA annealing, FRET fluorescence. inhibition, % at 18.7 µM. 0.46% of 360,000 active;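 active = every replicate showing at least 50% inhibition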
Target sequence (P43351 whole entry, looked up): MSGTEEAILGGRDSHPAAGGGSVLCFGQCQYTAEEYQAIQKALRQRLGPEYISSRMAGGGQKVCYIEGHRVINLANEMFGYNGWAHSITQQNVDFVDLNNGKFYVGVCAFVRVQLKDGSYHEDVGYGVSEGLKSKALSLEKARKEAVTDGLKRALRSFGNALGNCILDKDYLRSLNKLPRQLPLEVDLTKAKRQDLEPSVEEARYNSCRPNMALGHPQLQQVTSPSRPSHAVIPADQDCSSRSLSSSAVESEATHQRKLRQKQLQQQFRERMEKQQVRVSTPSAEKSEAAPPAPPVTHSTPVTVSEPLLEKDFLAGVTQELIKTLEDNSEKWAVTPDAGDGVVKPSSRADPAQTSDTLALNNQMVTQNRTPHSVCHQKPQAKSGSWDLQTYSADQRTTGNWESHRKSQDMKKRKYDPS
esBAF inh = blocks esBAF chromatin remodeling in mouse ES cells; Bmi1-luciferase knock-in reporter, 24 h; 100% = twice the neutral-well signal; reporter increase, % at 12.5 µM; 2% of 350,000 active; AID 602393; in the data active = activation above about 40%;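 also: 0% = median of the plate's neutral control wells and 100% = double that signal; a rise in the Bmi1 reporter signal indicates esBAF inhibition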
Starred values were filed as active, the others as inactive; x = not tested or not shown; & = joins results of further samples.

Short keys: A = RAD54 inh; B = ERAP1 inh; C = RAD52 anneal inh; D = esBAF inh
O=C(CCCN1CCC(O)(c2ccc(Cl)cc2)CC1)c1ccc(F)cc1
  A = 9.5&9.6; B = -5.1; C = 0.7; D = -10.9&-0.8

O=C(OCc1ccccc1)N1CCC2CC1c1ccc(N3CCN(Cc4ccccc4)CC3)cc12 (stereo not drawn)
  A = x; B = 0.7; C = 1.5; D = x

COC(=O)Nc1sc(C)nc1-c1ccccc1
  A = -2.3; B = 1.2; C = -14.4; D = -2.1

CCCCc1oc2ccccc2c1C(=O)c1cc(I)c(OCCN(CC)CC)c(I)c1
  A = 2.3; B = -2.7; C = 50.3*; D = -7.3

COc1cc(Cc2cnc(N)nc2N)cc(OC)c1OC
  A = -4.4&9.1; B = -0.7&0.6; C = 3.9&-10.9; D = -3.9&-4.8

CN1CCN(C2=Nc3cc(Cl)ccc3Nc3ccccc32)CC1
  A = 3.9; B = 0.2; C = -1.4; D = 5.1

CC(C(=O)O)c1cccc(C(=O)c2ccccc2)c1 (stereo not drawn)
  A = 6.1; B = 1.2; C = -16.7; D = -1.6

CC(C)NCC(O)COc1cccc2[nH]ccc12 (stereo not drawn)
  A = -2.1; B = x; C = x; D = -4.5

O=c1ccc2cccc([N+](=O)[O-])c2[nH]1
  A = x; B = 0.8; C = -15.8; D = x

Four structures from above, arranged by length of the SMILES, largest number first:
Short keys: A = RAD54 inh; B = ERAP1 inh; C = RAD52 anneal inh; D = esBAF inh
CCCCc1oc2ccccc2c1C(=O)c1cc(I)c(OCCN(CC)CC)c(I)c1
  A = 2.3; B = -2.7; C = 50.3*; D = -7.3

O=C(CCCN1CCC(O)(c2ccc(Cl)cc2)CC1)c1ccc(F)cc1
  A = 9.5&9.6; B = -5.1; C = 0.7; D = -10.9&-0.8

O=c1ccc2cccc([N+](=O)[O-])c2[nH]1
  A = x; B = 0.8; C = -15.8; D = x

COc1cc(Cc2cnc(N)nc2N)cc(OC)c1OC
  A = -4.4&9.1; B = -0.7&0.6; C = 3.9&-10.9; D = -3.9&-4.8

A portion of the library, so the mix of outcomes need not match the whole.
